Screening results: PubChem BioAssay, National Center for Advancing Translational Sciences (NCATS)
AID923 – qHTS Assay for Allosteric/Competitive Inhibitors of Caspase-1: Spectroscopic Profiling in AFC Spectral Region. Potency, µM (top dose mostly 57.5 µM), inactives show at the highest dose fluorescence increase, usual class: activators. AID 923, 2007. compound fluorescence, AFC spectral region (405/520 nm); almost no hit is shown here. 1.1% of 75,000 active; active = well fitted activation curve with a large enough effect; inconclusive = small, poorly fitted or top-dose-only effect;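 also: potency is read from the fitted curve at half-maximal effect; 0% is about no effect; scaled to a free AFC standard on each plate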
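Compound autofluorescence profiled at 405 nm ex/520 nm em during kinetic caspase 1 run (50 nM enzyme, 5 uM Ac-WEHD-AFC, HEPES pH 7.5, 10 mM DTT). Titration up to 57 uM; baseline from regression intercept, normalized to AFC standard curve.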
Resorufin autofl – resorufin region autofluorescence; max dye-equivalent concentration, M; AID 588; 0.04% of 59,000 active; Compound fluorescence, resorufin region 547/598 nm, buffer; active compounds read high; active = above 10 nM dye equivalent; inconclusive = 1 to 10 nM; inactive = 1 nM or less; a few of its hits are not listed in these tables; also: highest value over a series up to 38 µM
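Tris 100 mM pH 8.0; compound added, 15 min RT; CCD imager read, ex 547 nm/em 598 nm; signal normalized to resorufin standard curve (six concentrations per plate) as dye-equivalent concentration.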
A647 fluor – compound fluoresces in the A647 spectral region; max dye-equivalent concentration, M; Compound fluorescence, A647 channel (570/671 nm), Tris buffer; 59,000 tested, under 10 active; active means above 1 µM dye equivalent; inconclusive means 0.1 to 1 µM; inactive means 0.1 µM or less;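 also: values scaled relative to a standard on each plate; highest value over a series up to 38 µM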
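Fluorescence read (570 nm ex, 671 nm em) after 15 min RT incubation of compounds in 100 mM Tris buffer, pH 8.0; values expressed as dye-equivalent concentration against a six-point A647 standard series on each plate.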
TSHR agonist – activates the human thyroid stimulating hormone receptor; P16473; Potency, µM (series often up to 57.1 µM), inactives show at the highest dose activation, usual class: activators; HEK293-CNG-TSHR cells (CNG channel as cAMP sensor), membrane potential dye, cAMP; 0.48% of 73,000 active; active = well fitted activation curve of enough size with the parental cells flat; inconclusive = any curve in the parental cells; inactive = parental cells flat and receptor cells flat or falling; also: potency is read from the fitted curve at half-maximal effect; % of control where 0% means no effect; weak receptor curves with flat parental cells got no call and are not listed
Target sequence (P16473 whole entry, looked up): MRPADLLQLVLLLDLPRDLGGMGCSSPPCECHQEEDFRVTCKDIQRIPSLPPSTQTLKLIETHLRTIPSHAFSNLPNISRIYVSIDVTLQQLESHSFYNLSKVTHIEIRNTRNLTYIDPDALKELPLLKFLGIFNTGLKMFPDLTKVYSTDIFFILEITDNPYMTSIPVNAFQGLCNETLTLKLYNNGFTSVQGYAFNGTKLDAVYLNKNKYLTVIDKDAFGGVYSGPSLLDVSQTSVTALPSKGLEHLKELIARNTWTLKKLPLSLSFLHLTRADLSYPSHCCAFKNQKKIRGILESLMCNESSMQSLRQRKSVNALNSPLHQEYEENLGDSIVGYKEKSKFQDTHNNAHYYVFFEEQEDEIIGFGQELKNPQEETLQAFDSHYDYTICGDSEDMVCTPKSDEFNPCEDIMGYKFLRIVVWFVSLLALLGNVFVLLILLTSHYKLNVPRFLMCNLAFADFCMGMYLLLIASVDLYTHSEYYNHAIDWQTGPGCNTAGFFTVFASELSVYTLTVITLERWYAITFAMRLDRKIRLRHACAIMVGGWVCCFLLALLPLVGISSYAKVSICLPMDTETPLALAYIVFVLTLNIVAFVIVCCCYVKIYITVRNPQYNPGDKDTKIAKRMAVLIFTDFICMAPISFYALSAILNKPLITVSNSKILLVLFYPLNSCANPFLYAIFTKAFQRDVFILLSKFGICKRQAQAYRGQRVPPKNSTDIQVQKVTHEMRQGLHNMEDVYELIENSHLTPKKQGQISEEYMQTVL
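HEK 293 cells stably expressing TSHR and a cAMP-gated CNG channel; parental CNG-only cells as counterscreen. Cells preloaded 60 min with membrane potential dye plus 100 uM RO 20-1724, then compound 30 min; fluorescence read at 590 nm.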
A488 autofl – A488 region autofluorescence. compound autofluorescence, A488 spectral region, dye equivalency; active compounds read high. max dye equivalency, M. 0.1% of 59,000 active. AID 591; active = above 10 nM dye equivalent; inconclusive = 1 to 10 nM; inactive = 1 nM or less; about half of its hits are not listed in these tables;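 also: highest value over a series up to 38 µM; compound alone in buffer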
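Autofluorescence read at ex 480/em 540 nm after 15 min RT in 100 mM Tris pH 8.0; compound signal normalized to A488 standard series on each plate, reported as dye-equivalent concentration at each test concentration.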
* hit, by the source's call; i = inactive; ? = inconclusive; · = no result given; & = joins results of further samples; [ ] = dose if it differs, or a comment.

compound,A488 autofl,A647 fluor,Resorufin autofl,TSHR agonist,AID923
CCCc1nc2c(=O)[nH]c3ccccc3c2o1,i,1e-09,i,10%,1.2%
Nc1ccccc1[N+](=O)[O-],·,·,·,1%,-5.1%
CCc1cc(=O)oc2cc(OCC(=O)N(CC)CC)c(Cl)cc12,·,·,·,10%,-0.4%
CC(c1ccccc1)N1C(=O)c2ccc(C(=O)NCc3ccco3)cc2C1=O (centres undefined),i,1e-09,i,-5%,-1.3%
Cc1cc2cc(C(c3nnnn3Cc3ccco3)N3CCc4ccccc4C3)c(=O)[nH]c2cc1C (centres undefined),i,4e-09,i,23%,11%
CCOc1ccc(CCNC(=O)C2CCN(S(=O)(=O)CC)CC2)cc1OCC,i,2.7e-08,i,-1%[11.4 µM],0.6%
Oc1c(C(c2ccc(F)cc2)N2CCc3ccccc3C2)sc2ncnn12 (centres undefined),·,·,·,?,0.7%
O=C(Nc1nnc(-c2ccco2)s1)C1CCCCC1,i,1.2e-08,i,4%,3.6%
CCN(CC)CCCNC(=O)CC1Oc2ccc(C)cc2NC1=O (centres undefined),·,·,·,-1%,1.4%
CCOc1ccccc1C1C(C(=O)Nc2ccccc2OC)=C(C)Nc2nc(CCCO)nn21 (centres undefined),·,·,·,1%,0.2%
COCCn1c(=O)c2c3c(sc2n(CC(N)=O)c1=O)CCCC3,i,1.9e-08,i,-4%,-0.9%
C[N+](C)(C)CC=O,i,4.1e-09,i,·,-0.8%
Cn1cccc1Cc1nnc(SCC(=O)NCc2ccc(F)cc2)n1-c1ccc(F)cc1,·,·,·,-4%,-0.9%
O=c1c2ccc(-c3nnc4n3-c3ccccc3SC4)cc2nc2n1CCCCC2,i,2e-09,i,2%,0.5%
O=C(c1ccco1)N1C(=O)c2cccc3cccc1c23,i,2.2e-08,i,7%,10%
CN(C(=O)C1CCCO1)c1nnc(-c2ccncc2)s1 (centres undefined),i,4.1e-08,i,1%,1.2%
N#Cc1cc2c(nc1SCc1ccccc1)CCCC2=O,i,1e-09,i,·,-1.6%
NC(=O)COC(=O)c1ccc(S(=O)(=O)N2CCCCCC2)cc1,i,2.3e-08,i,-2%,0.6%
CCOC(=O)N=S(N)(=O)c1ccc(Cl)cc1 (centres undefined),i,8.3e-09,i,0%,-0.9%
COc1ccc(CNC(=O)Nc2cccc(C)c2)cc1,i,9e-09,i,-6%,-4.7%

Given with values under each structure: part of the list above
Fields – A488 autofl, A647 fluor, Resorufin autofl, TSHR agonist, AID923
NC(=O)COC(=O)c1ccc(S(=O)(=O)N2CCCCCC2)cc1
 : i, 2.3e-08, i, -2%, 0.6%
CCOC(=O)N=S(N)(=O)c1ccc(Cl)cc1 (centres undefined)
 : i, 8.3e-09, i, 0%, -0.9%
COc1ccc(CNC(=O)Nc2cccc(C)c2)cc1
 : i, 9e-09, i, -6%, -4.7%

Next structures
compound,A488 autofl,A647 fluor,Resorufin autofl,TSHR agonist,AID923
Cc1cc(Cl)ccc1OCCCC(=O)Nc1cccnc1,i,1e-09,i,12%,-0.3%
Cc1nc(SCC(=O)Nc2cc(C)on2)c2c3c(sc2n1)CCCC3,i,1.1e-08,i,?,-1.6%
COC(=O)[C@@H]1CC[C@H](C)[C@@H](c2ccc(C)cc2)N1C(=O)c1ccc(/C=N\O[C@@H](C)c2cc(-c3c(C)cc(C)cc3C)no2)cc1,·,·,·,3%[11.4 µM],5.1%[11.5 µM]
CC(CCO)Nc1nc2c(c(=O)n(C)c(=O)n2C)n1Cc1cccc(Br)c1 (centres undefined),i,5.1e-09,i,7%,6.8%
CCCOc1ccccc1N1C(=O)CC(N2CCOCC2)C1=O (centres undefined),·,·,·,-14%,-3.2%
CCOC(=O)c1ccc(Nc2ccc(-c3ccc(OC)c(OC)c3)nn2)cc1,i,4e-08,i,-7%,-3.8%
CC1(C)OC(=O)C2(Cc3ccccc3N3CCCCC32)C(=O)O1 (centres undefined),i,1e-09,i,-4%,0.7%
O=C(CSc1nnc(C2CC2)n1Cc1ccccc1)N1CCN(S(=O)(=O)c2ccccc2)CC1,i,2.8e-08,i,3%,-2.2%
Cc1ccc(C(=O)C2CCN(CC(=O)Nc3ccc4c(c3)OCCO4)CC2)cc1,i,2.5e-09,i,18%,2.6%
N[C@@]12CCc3nonc3[C@]1(O)CC(c1ccccc1)=[N+]2[O-],i,2.8e-08,i,-4%,-0.9%
CNC(=O)C1CCCN1S(=O)(=O)c1ccc(OC)cc1 (centres undefined),i,1.3e-08,i,-3%,-0.6%
Clc1c(-c2nnc3n2CCC3)sc2ccccc12,i,1.6e-08,i,5%,1.6%
COC(=O)c1cc(COc2ccc3ccc(=O)oc3c2)c(C)o1,i,1e-09,i,25%,1.0%
Cc1nnc2ccc(N3CCN(c4ccccn4)CC3)nn12,·,·,·,0%,0.3%
CCOC(=O)N1CCN(C(=O)c2ccc3c(=O)n(-c4ccc(OC)cc4OC)c(=S)[nH]c3c2)CC1,i,2.3e-09,i,?,-1.2%
COc1ccc(Cl)cc1NC(=O)CSc1nnc(COc2ccccc2)n1N,i,1e-09,i,3%,-1.6%
CC(C)CCn1nnnc1C(c1ccc(N(C)C)cc1)N1CCN(C(=O)c2ccco2)CC1 (centres undefined),i,2.9e-09,i,7%,-2.6%
COc1cc(-c2nn3c(C4CCCCC4)nnc3s2)cc(OC)c1OC,i,6e-09,i,·,·
CCCc1nc(S(=O)(=O)Cc2ccc(Cl)cc2Cl)n[nH]1,i,2.1e-09,i,-11%,0.0%
c1ccc(-c2csc(N3CCN(c4ccccn4)CC3)n2)cc1,i,1e-09,i,16%,1.3%

Later entries
compound,A488 autofl,A647 fluor,Resorufin autofl,TSHR agonist,AID923
Cc1ccc(CCNC(=O)CS(=O)Cc2nc(-c3cccc(C)c3)oc2C)cc1 (centres undefined),·,·,·,?,1.7%
NC(=O)CSc1nc2sc3c(c2c2ncnn12)CCCC3,i,3.9e-09,i,22%,0.4%
Cc1ccc2[nH]c(=O)c(CN(Cc3nnnn3C3CCCC3)C3CCCCC3)cc2c1,i,1.9e-08,i,·,7.3%
COc1ccc(Nc2ncc3c(n2)CC(c2ccccc2)CC3=O)cc1 (centres undefined),i,2.9e-08,i,7%,8.4%
CC1CCN(S(=O)(=O)c2ccc(NC(=O)CN3CCN(C)CC3)cc2)CC1,i,3.5e-08,i,0%,-0.3%
COc1ccc(-c2nnc(SCc3nnc(-c4ccccc4)o3)n2-c2ccccc2)cc1,·,·,·,19%[11.4 µM],1.6%
N=c1ccn(Cc2ccc(Cl)cc2)cc1,i,3.6e-08,i,-3%,-0.2%
Brc1ccc(-c2nnc3sc(CNC4CCCC4)cn23)cc1,·,·,·,8%,-1.4%
CC1(C)CC(=O)C(C(c2cccnc2)C2C(=O)CC(C)(C)CC2=O)C(=O)C1,·,·,·,?,1.5%
CCOc1cccc(-c2nnc3sc(-c4cccs4)nn23)c1,i,1.6e-08,i,·,·
COc1cc(SC)ccc1C(=O)N1CCCCCC1,·,·,·,?,2.6%
COc1ccc(/C(O)=C2/C(=O)C(=O)N(CCCN(C)C)C2c2ccc(Cl)cc2)cc1OC (centres undefined),·,·,·,-2%,2.8%
Cc1nnc(C)n1/N=C/c1cccc(Oc2ccccc2)c1,i,2.4e-08,i,12%,2.0%
O=C(NCc1ccco1)c1nc2ncccn2n1,i,3.5e-09,i,5%,-2.4%
Cc1ccccc1NS(=O)(=O)c1cc(C(=O)N2CCCC2)ccc1C,i,2.3e-08,i,22%,-0.5%
COc1ccc(C(=O)CN2C(=O)NC3(CCCc4ccccc43)C2=O)cc1OC (centres undefined),i,2.8e-08,i,12%,-3.1%
CCOC(=O)CCC(=O)OCC(=O)NC(C)C1CC2CCC1C2 (centres undefined),i,8e-09,i,6%,-0.2%
CN1CCN(C(=O)CCCOc2ccc(Cl)cc2Cl)CC1,·,·,·,3%,1.1%
CC1(C)CC(=O)C=C(NCCO)C1,i,1e-09,i,·,·
COc1ccc(C(=O)CCN(C)C)c2ccccc12,i,1e-09,i,6%[11.4 µM],0.9%[11.5 µM]

The results go on:
compound,A488 autofl,A647 fluor,Resorufin autofl,TSHR agonist,AID923
c1ccc2c(CNCCN3CCOCC3)cccc2c1,i,1.9e-08,i,9%,0.8%
CCN(CC)CCNC(=O)c1cn(CC)c2ccc(S(=O)(=O)N(C)C)cc2c1=O,·,·,·,2%,-0.5%
Cn1c(=O)cc(SCC(=O)NCc2cccnc2)c2ccccc21,i,9e-09,i,?,0.6%
COc1cccc(CNC(=O)c2cc3ccccn3n2)c1,·,·,·,11%,1.4%
Cc1noc(C)c1C(=O)OCC(=O)NCCc1ccc(Cl)cc1,i,2.5e-08,i,2%,0.3%
O=C(c1nsc(Cl)c1Cl)N1CCCCC1,·,·,·,9%[11.4 µM],2.6%
CC(C)Oc1ccc(C(=O)Nc2ccc(N3CCCC3)cc2)cc1,·,·,·,-23%[11.4 µM],-0.9%
CC(Oc1ccc(NC(=O)c2ccco2)cc1)C(=O)N1c2ccccc2CC1C (centres undefined),i,1.1e-08,i,?,0.2%
O=C(COc1ccc(S(=O)(=O)NCCc2ccccc2)cc1)N1CCCC1,i,1e-09,i,3%,-3.0%
Cc1cccc(C)c1Nc1nc2ccccc2o1,·,·,·,15%,1.8%
O=C(CSc1nc2c(c(=O)n1-c1ccc(F)cc1)SCC2)N1CCCC1,i,3e-08,i,7%,0.5%
COCC(=O)N1CCC2(CCCN(C(=O)Nc3ccccc3)C2)CC1,i,1.4e-09,i,-1%,3.4%
COc1cccc(CNC(=O)Cn2cc3c(n2)CCCCC3)c1,·,·,·,24%,-2.6%
COc1cc2nc(CN(C)CC(=O)Nc3ccc(N4CCOCC4)cc3)[nH]c(=O)c2cc1OC,i,2.2e-09,i,-3%,6.8%
COc1cc(SC)ccc1C(=O)NCCCOC(C)C,i,1.3e-09,i,7%,-0.1%
CCCn1c(C)nc2c(N3CCCN(Cc4ccccc4)CC3)nc(C)nc21,·,·,·,20%,4.8%
COc1ccc(C(=O)Nc2ccc(S(=O)(=O)N3CCCCC3)cc2)cc1OC,i,1.2e-08,i,0%,-2.5%
O=C(CN1CCCCCC1)Nc1cccc2c1OCO2,i,3.6e-08,i,-5%,-0.1%
C[C@@H](C(=O)Nc1ccc2ccccc2c1)[C@H]1C[C@]1(C)[C@H](NS(=O)(=O)c1ccc2ccccc2c1)c1ccccc1,·,·,·,-5%,-1.3%
Cc1ccc(C)n1C1CCS(=O)(=O)C1 (centres undefined),i,8.4e-09,i,-11%,0.8%

Further compounds follow:
compound,A488 autofl,A647 fluor,Resorufin autofl,TSHR agonist,AID923
C[C@@](N)(Cc1ccc(O)cc1)C(=O)O,i,1e-09&1e-08,i,3%&-4%,1.0%&10%&2.3%
CC(O)/C=C/c1cccc[n+]1C (centres undefined),i,1e-09,i,3%,0.6%
O=P(COCCO)(c1ccccc1)c1ccccc1,i,7.4e-09,i,1%,-1.5%
C=CCNC(=O)CN1CCC(O)(c2ccc(F)cc2)CC1,i,1e-08,i,?,-2.4%
COC(=O)CS(=O)(=O)c1ccc2c(c1)CC(=O)N2,i,1e-09,i,-1%,0.7%
N#Cc1cccc(-c2nc(N3CCNCC3)c3ccccc3n2)c1,i,1.4e-09,i,4%,-0.3%
Cc1cc(C)n2nc(SCc3cc(=O)n4ccccc4n3)nc2n1,i,9.5e-09,i,9%,-1.2%
O=C(Nc1ccc2nn(-c3ccccc3)nc2c1)c1cccs1,i,8.5e-09,i,24%,0.3%

Not all compounds are listed (hit frequency here may not be typical).
